Assay outcomes as filed in PubChem BioAssay.
TRPML1 inh: human mucolipin-1 channel inhibition; actives 0.02% (n = 390,000); TRPML1-inducible cells, Ca2+ dye fluorescence, FDSS; stronger effect = lower value; inhibition of EC80 agonist-evoked calcium signal; AID 624415; activity change, negative = inhibition, % (concentration not given with the values); in the data active means activity change below about -50%; inconclusive means about -30% to -50%; inactive means above about -30%;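 further: stimulus is agonist 54-4 at its EC80 concentration; on the % scale 0 is the no-effect control and ±100 the full control effect; compound concentration not given in the record; the text of the record puts the active cut at -80%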
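Tet-induced TRPML1-DL cells loaded with Ca8 no-wash calcium dye were read kinetically on FDSS. Compound addition was followed by EC80 agonist 54-4 (4 uM final); inhibition was read over 110 s.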
ClpP mod: qHTS Assay for Activators of ClpP; ATP-dependent Clp protease proteolytic subunit (Bacillus subtilis (strain 168)), P80244; purified B. subtilis ClpP, FRET peptide cleavage, 20 min; Potency, µM (titrated, usually from 57.5 µM), for inactives: at the top dose activity change, negative = active; actives 1.9% (n = 340,000); AID 651965, 2013; active = well fitted falling curve with a large enough effect; inconclusive = small, poorly fitted or top-dose-only effect; inactive = no such curve, though single readings can be large or run the other way; further: potency means the concentration at half of the fitted maximal effect; the source files actives as falling curves though it sought activators and does not explain the sign; nearly all actives have a fitted effect of over 65% in size; many hits overshoot -100%
Target sequence (P80244 whole entry, looked up): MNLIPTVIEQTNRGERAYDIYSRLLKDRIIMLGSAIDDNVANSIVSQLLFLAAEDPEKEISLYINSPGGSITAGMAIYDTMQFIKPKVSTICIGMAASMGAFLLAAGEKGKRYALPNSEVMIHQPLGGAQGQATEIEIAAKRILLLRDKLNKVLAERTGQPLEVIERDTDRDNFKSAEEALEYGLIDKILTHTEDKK
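Purified B. subtilis ClpP, 10 microg/mL final in Tris/HCl pH8 with KCl, BSA, glycerol and Tween-20, cleaved an Abz/nitrotyrosine-quenched decapeptide. Fluorescence (ex 320, em 430) was read at 0 and 20 min at room temperature. Delta was normalized to 5.8 microM ADEP and DMSO/no-enzyme controls.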
Sfp inh: inhibitors of Bacillus subtilis Sfp phosphopantetheinyl transferase. Biochemical Sfp PPTase activity, qHTS. Potency, µM, without a hit: max response, negative = inhibition, usual class: inhibitors. Q9F4F7. actives 3.5% (n = 310,000). AID 1490; active means well fitted inhibition curve with a large enough effect; inconclusive means small, poorly fitted or top-dose-only effect, or another doubt; inactive means no such curve, though single readings can be large or run the other way;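 further: the enzyme is Sfp with the accession as filed and its product quenches rhodamine fluorescence; potency means the concentration at half of the fitted maximal effect; 0% = enzyme reaction without inhibitor and -100% = no enzyme wells; top concentration of the series not given in the record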
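Sfp 15 nM + cpd, 15 min RT; start w/ rhodamine-CoA 5 uM, BHQ-2-YbbR 12.5 uM (final); 50 mM Hepes pH 7.6, 10 mM MgCl2, 0.01% NP-40, 0.01% BSA; read 525/598 nm at 0 and 30 min.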
TRPML1 agonist: activates the human TRPML1 channel; TRPML1-expressing cells, Ca2+ dye fluorescence, FDSS; host cell line not named in the record; reference of the full effect not given here; actives 0.12% (n = 410,000); activation, % (no concentration beside the values); in the data active = activation above about 50%; inconclusive = about 30% to 50%; inactive = below about 30%; further: 0% is about no effect; the text of the record puts the active cut at 80%
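Calcium fluorescence on an FDSS kinetic reader gave the read-out. Tet-induced TRPML1-DL cells were plated overnight, dye-loaded (Ca8 with quencher, 45-90 min, room temperature, dark), then read 110 s after compound addition, and again 110 s after 4uM final 54-4 (EC80).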
PINK1 expr mod: modulators of PINK1 expression. actives 0.2% (n = 410,000). Potency, µM (top dose mostly 76.6 µM), inactives show at the highest dose activation (PINK1 increase), usual class: activators. PINK1 immunofluorescence, high-content cytometry, 24 h. AID 624263; active = well fitted activation curve with a large enough effect; inconclusive = small, poorly fitted or top-dose-only effect; inactive = flat fitted curve, though single readings scatter; cell line not stated here;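 further: potency means the concentration at half of the fitted maximal effect; % of control where 0% means no effect; nearly all actives have a fitted effect of over 65% in size; a mitochondrial uncoupler was the plate control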
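Cells are seeded, rested 12 hours, then given compound at five concentrations or DMSO for 24 hours. After fixation, blocking and antibody staining, PINK1 amount and mitochondrial localization are scored; CCCP serves as control.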
Menin-MLL FL inh: menin-MLL binding inhibition, fluorescein peptide | Fluorescence polarization, fluorescein-MLL peptide displacement from menin | FP activity change, % at 61.4 µM | 290,000 tested, under 10 active | AID 1766; inconclusive = falling polarisation curve, or a change in total fluorescence; inactive = total fluorescence flat and polarisation flat or rising; no compound was filed as active; the % refers to the polarisation; negative = inhibition;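 further: % of control where 0% means no effect; inhibitors lower the polarisation; unlabelled MLL peptide was the positive control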
TRPV1 potentiator: enhances activation of the human vanilloid receptor TRPV1 | TRPV1-expressing cells, Fluo-8 calcium influx, capsaicin EC20 potentiation; host cell line not named in the record; control for the full effect not named in the record | actives 0.02% (n = 320,000) | AID 540277 | Q8NER1 | potentiation, % at 8.33 µM; active means potentiation above 80%; inconclusive means 30% to 80%; inactive means below 30%; further: 0% is about no effect
Target sequence (Q8NER1 whole entry, looked up): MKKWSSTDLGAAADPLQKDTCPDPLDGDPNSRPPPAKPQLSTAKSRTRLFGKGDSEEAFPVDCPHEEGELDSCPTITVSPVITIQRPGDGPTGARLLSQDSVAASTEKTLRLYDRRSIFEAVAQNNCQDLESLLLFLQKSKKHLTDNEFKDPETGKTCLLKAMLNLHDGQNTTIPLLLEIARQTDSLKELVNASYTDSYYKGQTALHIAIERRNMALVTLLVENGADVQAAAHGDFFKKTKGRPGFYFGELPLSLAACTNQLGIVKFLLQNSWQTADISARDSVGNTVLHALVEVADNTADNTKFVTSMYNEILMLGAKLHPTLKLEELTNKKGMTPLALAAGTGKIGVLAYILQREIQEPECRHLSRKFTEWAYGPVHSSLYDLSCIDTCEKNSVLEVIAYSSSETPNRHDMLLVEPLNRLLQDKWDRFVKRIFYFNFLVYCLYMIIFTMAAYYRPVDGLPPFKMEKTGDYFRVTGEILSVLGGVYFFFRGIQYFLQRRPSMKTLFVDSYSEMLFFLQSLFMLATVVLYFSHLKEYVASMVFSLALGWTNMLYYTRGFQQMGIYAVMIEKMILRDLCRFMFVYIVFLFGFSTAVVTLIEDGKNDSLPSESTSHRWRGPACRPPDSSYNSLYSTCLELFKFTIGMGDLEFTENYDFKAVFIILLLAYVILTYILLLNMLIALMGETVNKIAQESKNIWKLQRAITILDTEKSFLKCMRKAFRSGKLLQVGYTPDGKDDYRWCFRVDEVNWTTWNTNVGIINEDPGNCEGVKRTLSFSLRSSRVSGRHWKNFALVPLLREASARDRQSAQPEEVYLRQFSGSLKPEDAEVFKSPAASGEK
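Cells expressing TRPV1 were dye-loaded with Fluo-8 and read kinetically: 10 s baseline, 3 min after compound (agonist portion), then 2 min after EC20 capsaicin (allosteric enhancer portion). Calcium-bound dye fluorescence at 480/520 nm.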
* marks the source's active call; other numbers are inactive results; ? = inconclusive; nt = not tested or not shown; & = joins results of further samples; [ ] = dose if it differs, or a comment.

The first 2 entries as a preview:
SMILES	TRPML1 inh	ClpP mod	Sfp inh	TRPML1 agonist	PINK1 expr mod	Menin-MLL FL inh	TRPV1 potentiator
Cc1cccc(OCc2nnc(SCC(=O)c3cccs3)n2C)c1C	-8	-0.8%	13%	1.2	1.5%[38.3 µM]	-0.4	-12
CCc1oc(-c2ccc(OC)cc2)c(C(=O)OCCCCCO)c1C(C)OCCO (configuration not stated)	nt	4.8%	nt	-0.1	-0.9%	nt	nt

This part in full, repeating the preview:
SMILES	TRPML1 inh	ClpP mod	Sfp inh	TRPML1 agonist	PINK1 expr mod	Menin-MLL FL inh	TRPV1 potentiator
Cc1cccc(OCc2nnc(SCC(=O)c3cccs3)n2C)c1C	-8	-0.8%	13%	1.2	1.5%[38.3 µM]	-0.4	-12
CCc1oc(-c2ccc(OC)cc2)c(C(=O)OCCCCCO)c1C(C)OCCO (configuration not stated)	nt	4.8%	nt	-0.1	-0.9%	nt	nt
O=C(c1cnn2c(C(F)(F)F)cc(-c3ccco3)nc12)N1CCCCCC1	41	-2.4%	2%	5.0	-2.5%	-3.2	19
CC(=O)c1ccc(OCCCC(=O)NC2CCCCC2C)cc1 (configuration not stated)	7	nt	5%	-0.2	-0.7%	-2.8	9
CSc1ccccc1C(=O)NC1CCCC1	-8	-3.6%	-7%	-0.5	-2.3%[38.3 µM]	3.9	-3
CS(=O)(=O)c1nc(S(=O)(=O)c2ccc(Cl)cc2)c(NCCCN2CCOCC2)s1	31	-2.1%	19%	-0.2	-0.9%	nt	0
Cc1nc2ccc(C(C(F)(F)F)(C(F)(F)F)C(F)(F)F)cc2[nH]1	-4	1.7%	32%[activator]	0.0	1.3%	2.2	-12
Cc1ccccc1C(=O)NCCNC(=O)c1ccccn1	19	nt	15%	0.1	-0.2%	0.6	2
COc1ccc(-n2cnnc2SCC(=O)NC2CCCCC2)cc1	-13	-2.5%	nt	1.9	-2.0%	nt	nt
CCC(=O)N1CCc2cc(S(=O)(=O)NC(CC(C)C)C(=O)NCc3ccc(C)cc3)ccc21 (configuration not stated)	-10	1.6%	nt	-0.5	?	nt	nt
Cn1ccc(=O)c2cc([N+](=O)[O-])ccc21	0	-1.2%	nt	-0.6	0.7%	nt	nt
COc1ccc(CN2C(=NC(=O)C3CC3)SC3CS(=O)(=O)CC32)cc1 (configuration not stated)	13	0.9%	10%	-0.5	0.6%	nt	8
O=C(NC12CC3CC(CC(C3)C1)C2)C12CC3CC(C1)CC(n1cnc(Cl)n1)(C3)C2	10	-0.1%	22%	-1.1	-1.3%	0.1	-1
CC(=O)Nc1ccc(C(=O)OCC(=O)N(c2ccccc2)C2CCS(=O)(=O)C2)cc1 (configuration not stated)	-1	0.0%	nt	-0.2	-0.4%	nt	8
CC(C)C(=O)Nc1ccccc1C(=O)OCC(=O)c1ccc2c(c1)OCCO2	-14	-1.2%	-5%	1.1	4.7%	-0.7	-5
O=C(O)c1cccc(NS(=O)(=O)c2cccc3cccnc23)c1	-6	-0.8%	-7%	-0.2	0.4%	1.6	0
CCOC(=O)c1sc(NC(=O)CSc2nc3cccnc3n2C)nc1C	-12	nt	18%	-0.4	5.2%	nt	-14
CCCCNC(=O)C1(C)CCN1C(=O)c1ccc(OC)c(F)c1 (configuration not stated)	nt	0.3%	nt	-0.4	1.4%	nt	nt
CN(c1ccc(C(=O)N2CCN(Cc3ccc4c(c3)OCO4)CC2)cc1)S(C)(=O)=O	-7	nt	2%	1.0	0.0%	0.1	-1
CC1CC(C)(C)n2c(O)c(N=NC(N)=S)c3cccc1c32 (configuration not stated)	nt	-1.7%	6%	nt	1.6%	4.4	-22
Cc1ccc(S(=O)(=O)NCC(=O)OCC(=O)N(Cc2ccccc2)C(C)(C)C)cc1	-18	1.2%	-1%	-0.1	0.7%	4.2	-11
COc1ccc2c(c1OC)C(=O)OC2Nc1nc2ccccc2s1 (configuration not stated)	24	-2.6%	3%	-0.2	-0.5%	-0.1	2
Cc1ccc([N+](=O)[O-])c(NC(=O)COC(=O)C2CC3CCCC(C2)C3=O)c1C (configuration not stated)	-7	-1.2%	14%	-0.7	-0.9%	nt	3
C/C(Cn1cnc([N+](=O)[O-])n1)=N\NC(=O)c1ccccc1O	-11	nt	-11%	-0.4	-0.1%	-0.8	-23
CC(=O)Nc1nc(NC(=O)/C=C/c2ccccc2)n(-c2ccccc2)n1	-17	-2.2%	21%	0.2	0.1%	7.0	3
Cc1cc(C)nc(/N=C(\N)Nc2ccc(S(=O)(=O)O)cc2)n1	21	nt	8%	-0.2	-0.2%	-5.3	-2
COc1ccc2c(OC)cc(=O)n(C)c2c1	1	-7.8%	-3%	0.0	14%	-1.6	17
O=[N+]([O-])c1ccc(NC(=S)N2CCc3ccccc32)cc1	-10	-0.1%	-1%	0.0	?	nt	-7
COc1ccc(CCNC(=O)COC(=O)/C=C/c2ccc(OC)cc2OC)cc1	-11	-11%	nt	0.7	0.2%	nt	nt
Cc1ccc(-c2nnc(-c3cccc(NC(=O)c4cccs4)c3)o2)cc1	-3	71%	-1%	0.0	0.4%	3.8	-1
CC(C)(C)c1cc(C(=O)O)nn1-c1ccccc1	-9	0.2%	5%	-0.4	-0.4%	-0.6	16
Cc1ccc(OCCC(=O)OCC(=O)N2CCN(S(=O)(=O)c3ccc(C)cc3)CC2)cc1	-14	-2.0%	nt	2.0	-2.2%	nt	0
O=C(C#Cc1ccccc1)c1ccccc1	1	-2.2%	nt	9.0	-0.7%	nt	nt
COc1ccc(-n2c3c(c(=O)[nH]c2=O)C(C(F)(F)F)(C(F)(F)F)N=C(CC(C)C)N3)cc1	23	-3.3%	18%	-0.6	5.4%[38.3 µM]	1.6	-3
COc1ccc(C(=O)N/N=C(\C)CC(=O)Nc2ccc3c(c2)OCCO3)c(OC)c1	22	nt	8%	0.3	1.8%	-1.2	0
COc1ccc(/C=C2/SC(=O)N(CCC(=O)Nc3ccccc3C(=O)O)C2=S)cc1	-3	-2.3%	-1%	1.1	-1.9%	1.8	12
Cc1ccc(C(=O)N2CCN(S(=O)(=O)N3CCCCCC3)CC2)cc1	-20	nt	1%	-0.4	1.1%	-3.7	26
CCC(C(=O)NC1CCCC1)N(C(=O)Cn1nnc(-c2ccc(C)o2)n1)c1cccc(O)c1 (configuration not stated)	31	nt	1%	0.1	1.7%	0.8	-2
CC1CCCN(S(=O)(=O)c2ccc(C(=O)Nc3ccccc3-c3nc4ccccc4[nH]3)cc2)C1 (configuration not stated)	-4	?	19%	0.3	6.5%	nt	3
COc1ccc(N2CCN(c3ccc(C(N)=O)cc3[N+](=O)[O-])CC2)cc1	2	nt	-17%	-1.1	-0.4%	-2.2	-9
NC(=O)c1sc2nc3c(c(-c4cccs4)c2c1N)CCCC3	nt	nt	-17%	nt	nt	-2.3	11
Cc1c(C(=O)Nc2c3c(nn2C(C)(C)C)CS(=O)(=O)C3)cccc1[N+](=O)[O-]	-15	0.4%	13%	0.4	0.0%	4.7	-2
Cc1ccc(C(=O)Cn2cccn2)cc1	63	nt	10%	-0.6	-1.0%	-12	18
O=C(c1cnn2c1NC(c1ccc(Br)cc1)CC2C(F)(F)F)N1CCN(C23CC4CC(CC(C4)C2)C3)CC1 (configuration not stated)	50	-2.9%	11%	0.7	0.3%	4.8	-6
CC(=O)c1[nH]c(C)c(C(C)=O)c1C	7	-2.8%	18%	1.2	-0.1%	5.8	-12
C=CCN1C=C2C(=O)C(C)(OC(=O)CCc3ccccc3)C(=O)C=C2C=C1c1ccc(C#N)cc1 (configuration not stated)	13	0.8%	-5%&-7%	0.5	0.4%	0.2[11.7 µM]	?
CCc1cnc2c(c1SCC(=O)NCc1ccccc1Cl)c(=O)n(C)c(=O)n2C	-8	-2.0%	nt	-0.4	1.2%	nt	nt
O=C(CCCN1C(=O)/C(=C/c2ccccc2Cl)SC1=S)N1CCOCC1	23	-0.7%	-19%	0.0	8.9%	nt	2
COCCNC(=O)C1(C)CCN(Cc2csc(-c3ccc(Cl)cc3)n2)C1 (configuration not stated)	nt	-1.1%	nt	-0.9	-0.5%	nt	nt
CN(C)S(=O)(=O)c1ccc(NC(=O)C2CCCN(C(=O)c3ccc(Cl)cc3)C2)cc1 (configuration not stated)	-16	-1.0%	-30%	0.1	1.2%	0.6	-14
COc1ccc(NC(=O)CCNC(=O)Cn2ccc3ccccc3c2=O)cc1OC	-5	0.9%	11%	-1.1	2.1%	6.0	-11
CCc1noc(C)c1C(=O)N(CC)CC(=O)NCc1ccc(F)cc1	29	0.8%	nt	-0.7	-0.3%	nt	nt
Cc1ccccc1C(=O)Nc1ccc2c(c1)OCO2	-5	0.6%	-8%	-1.4	-1.6%	2.7	-11
COc1ccc(-c2cc(C3CCN(c4ncccc4[N+](=O)[O-])CC3)[nH]n2)cc1	-10	4.8%	10%	0.5	-1.6%	5.6	25
CC(C)CCNC(=O)C1CCN(S(=O)(=O)c2ccc3c(c2)CC(C)N3C(=O)C2CCC2)CC1 (configuration not stated)	2	nt	-3%	0.7	-0.1%	-4.7	-11
COc1cc(OC)cc(C(=O)NC(C(=O)Nc2ccc3c(c2)OCCO3)C(C)C)c1 (configuration not stated)	-10	-1.0%	nt	-1.9	0.2%	nt	-13
O=C(/C=C/c1cccc([N+](=O)[O-])c1)N1CCN(c2ccccn2)CC1	3	-0.4%	5%	-0.6	0.6%	-0.8	-3
Cc1ccc2ncccc2c1NS(=O)(=O)c1ccccc1	-8	-0.7%	2%	-0.7	3.2%	1.9	?
O=C(c1ccccn1)N1CCCC(N2CCN(c3ccc(F)cc3)CC2)C1 (configuration not stated)	16	-2.7%	10%	-0.6	-0.5%	2.8	12
CC(=O)c1nnn(-c2nc(C#N)nc(N3CCOCC3)n2)c1C	nt	-0.4%	nt	-0.6	-0.8%	nt	nt
Nc1c(N(CCC2=CCCCC2)C(=O)c2ccco2)c(=O)[nH]c(=O)n1Cc1ccccc1	-4	-5.2%	nt	-0.4	-1.4%	nt	10
Cc1n[nH]c(C)c1S(=O)(=O)N1CCCC(C(=O)Nc2ccc3c(c2)OCCO3)C1 (configuration not stated)	nt	nt	17%	nt	nt	0.1	8
CCc1nc(SCC(=O)O)c(C#N)cc1C	8	-3.8%	6%	0.5	nt	-0.7	6
